Bioassay records: PubChem, National Center for Advancing Translational Sciences (NCATS)
Rango release inh: inhibitors of RanGTP-induced Rango-importin beta complex dissociation | O95149+P62826 | Biochemical FRET Rango-importin beta, RanGTP-induced dissociation | Potency, µM (series often up to 46.1 µM), for the others: at the highest dose activity change, negative = inhibition | 340,000 tested, 0.071% active; active means falling FRET ratio curve, often poorly fitted, with flat reads before Ran was added; inconclusive means other falling curves, or compound fluorescence or quenching; inactive means flat or rising ratio curve;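 also: potency is read from the fitted curve at half-maximal effect; % of control where 0% means no effect; nearly all actives have a fitted effect of over 45% in size; -100% = wells without RanGTP and RCC1; the record marks most hits as doubtful in a second field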
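Rango FRET biosensor (snurportin-1 IBB flanked by N-terminal EYFP and C-terminal CFP10) at 0.1 uM, with 0.25 uM importin beta in PBS, 1mM DTT, 0.02% Tween-20, 0.1% BSA. 0.6 uM Ran, 2mM GTP and 0.2 uM RCC1 were then added for 45 min at room temperature. Inhibition read as loss of FRET rise.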
miR-21 FLuc: raises the signal of a miR-21 reporter | HeLa miR-21 FLuc reporter, luciferase, 48 h | 340,000 tested, under 10 active | Potency, µM (doses to about 38.3 µM), without a hit: top-dose reporter change, positive = more light | AID 2288; active = well fitted rising curve with a large enough effect; inconclusive = small, poorly fitted or top-dose-only effect; inactive = no such curve, though single readings can be large or run the other way;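 also: % of control where 0% means no effect; miR-21 action dims this reporter so a rising signal means less miR-21 action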
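HeLa cells endogenously expressing miR-21, stably carrying CMV-driven firefly luciferase with a downstream miR-21 binding site, 2000 cells/well. Titrations up to approximately 40 uM, 48 hours; luciferase luminescence read.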
GLA inh pH 4.5: alpha-galactosidase A (human) inhibition, pH 4.5; activity change, negative = inhibition, % at 105 µM; purified enzyme, 4-MU-alpha-Gal fluorescence, pH 4.5; P06280; AID 1467; 230,000 tested, under 10 active; inconclusive = small, poorly fitted or top-dose-only inhibition, or a rising curve; inactive = flat fitted curve, though single readings scatter; no compound was filed as active;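 also: 0% = full activity with enzyme and -100% = basal without enzyme; dose as in the result columns while the protocol names 77 µM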
Rango-impB inh: inhibitors of Rango-importin beta complex formation | Rango CFP/YFP FRET sensor + importin beta, 45 min | 340,000 tested, 0.031% active | Q14974 | Potency, µM (series often up to 92.2 µM), inactives show top-dose inhibition of complex formation; active = rising FRET ratio curve, often small or poorly fitted; inconclusive = mostly compound fluorescence or quenching in the first reads; inactive = flat curves in all reads;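 also: potency is read from the fitted curve at half-maximal effect; 0% = DMSO wells and 100% = buffer wells lacking importin beta; nearly all actives have a fitted effect of over 15% in size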
Target sequence (Q14974 whole entry, looked up): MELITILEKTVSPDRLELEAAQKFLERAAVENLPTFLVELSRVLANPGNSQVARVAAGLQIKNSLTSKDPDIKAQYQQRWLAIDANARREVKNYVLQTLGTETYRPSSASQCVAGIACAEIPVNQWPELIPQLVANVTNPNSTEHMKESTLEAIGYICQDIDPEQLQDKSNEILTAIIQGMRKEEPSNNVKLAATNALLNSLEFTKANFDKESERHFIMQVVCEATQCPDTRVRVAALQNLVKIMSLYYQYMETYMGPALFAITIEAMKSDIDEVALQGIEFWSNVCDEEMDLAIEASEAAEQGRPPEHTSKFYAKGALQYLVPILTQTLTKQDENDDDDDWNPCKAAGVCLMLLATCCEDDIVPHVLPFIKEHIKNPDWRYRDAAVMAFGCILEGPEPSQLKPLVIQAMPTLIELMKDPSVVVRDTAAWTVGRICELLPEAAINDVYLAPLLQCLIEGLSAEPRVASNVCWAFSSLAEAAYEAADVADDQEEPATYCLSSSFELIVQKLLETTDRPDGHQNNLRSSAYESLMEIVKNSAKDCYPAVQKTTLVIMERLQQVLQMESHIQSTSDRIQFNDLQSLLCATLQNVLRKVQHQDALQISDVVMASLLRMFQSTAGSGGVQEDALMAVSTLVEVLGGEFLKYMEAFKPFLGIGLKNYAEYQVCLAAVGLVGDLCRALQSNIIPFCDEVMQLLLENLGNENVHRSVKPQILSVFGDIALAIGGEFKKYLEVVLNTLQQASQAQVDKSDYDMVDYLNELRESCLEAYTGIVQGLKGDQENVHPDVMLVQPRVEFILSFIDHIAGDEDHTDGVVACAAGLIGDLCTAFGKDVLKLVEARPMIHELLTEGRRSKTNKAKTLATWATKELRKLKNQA
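FRET biosensor Rango (snurportin 1 IBB between N-terminal EYFP and C-terminal Cerulean), 50 nM in PBS/1 mM DTT/0.02% Tween-20/0.1% BSA, preincubated 5 min RT with compound; 0.125 microM importin beta added, 45 min RT, CFP/YFP FRET ratio read.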
The depositor's hits bear a star; ? = inconclusive; . = no result given; & = joins results of further samples.

SMILES	Rango release inh	miR-21 FLuc	GLA inh pH 4.5	Rango-impB inh
CCc1c(C(=O)NNC(=O)Nc2ccc3c(c2)OCO3)csc1C	-8%	-28%	.	-2.4%
CCCCNC(=O)CCn1c(=O)c2ccccc2n(Cc2ccc(Cl)cc2)c1=O	-10%	-6%	-1	-3.6%
[N-]=[N+]=CC(=O)CCCN1C(=O)c2ccccc2C1=O	3%	-2%	3	-0.3%
CNC(=O)/C(C#N)=C1/SC(Cc2ccc(F)cc2)C(=O)N1c1ccccc1 (stereo not drawn)	-2%	11%	-6	-1.2%
N[C@@H](Cc1ccc(O)cc1)c1nnc([C@H](CCC(=O)O)NC(=O)C2CCNCC2)o1	0%	-1%	1	10%
COc1ccc(NC(=O)CSc2nnc(Cc3cccs3)n2-c2ccc(C)cc2)cc1	-8%	2%	-4	-0.4%
O=C(c1ccccc1)c1nc[nH]c1C(=O)Nc1ccccn1	27%	-8%	-9	?
Cc1ccccc1CN1CCN(Cc2ccc3cccc(F)c3n2)CC1CCO (stereo not drawn)	11%	0%	.	-5.2%
CCc1c(C)sc(NC(=O)Cc2ccccc2OC)c1C(=O)N1CCOCC1	5%	-1%	.	?
CCOC(=O)CN1N=C(/C=C/c2ccccc2)CCC1=O	29%	.	.	-2.9%
COC(=O)c1ccc(-c2c(-c3ccccc3)ncc3cc(OC)c(OC)cc23)cc1	5%	.	.	-0.2%
CCOC(=O)CC1=Nc2ccccc2NC(=O)C1	-2%	-1%	-3	-0.6%
CCC1=C(CC2NCCc3ccccc32)CC2c3cc(OC)c(OC)cc3CCN2C1 (stereo not drawn)	-6%	.	.	-2.4%
O=[N+]([O-])c1cnc(Sc2ccncn2)s1	-3%	?	-2	-1.5%
CC(=O)Oc1ccc2cc(-c3nc4ccccc4n3C)c(=O)oc2c1	?	-59%	?	?
COc1ccc(S(=O)(=O)Nc2cccc3c2O[C@H](CN(C)Cc2ccc(Oc4ccccc4)cc2)[C@@H](C)CN([C@H](C)CO)C3=O)cc1	-24%	.	.	2.4%
Cc1cc(C(=O)CN2C(=O)C(=O)N(Cc3ccccc3)C2=O)c(C)n1-c1ccccc1F	3%	1%	-1	4.1%
O=C1C(=O)N(CCCN2CCOCC2)C(c2ccc([N+](=O)[O-])cc2)/C1=C(\O)c1ccc2c(c1)OCCO2 (stereo not drawn)	-1%	-11%	.	-0.1%
COc1cccc(C(=O)NCc2ccc(-c3nc4ccccc4s3)cc2)c1	4%	-12%	11	3.5%
Cc1cccc(NC(=S)N(CCN(C)C)C(C)c2cccnc2)c1 (stereo not drawn)	7%	2%	-3	2.0%
OCCCNCc1ccc(-c2ccccc2)cc1	6%	-6%	0	-1.1%
Oc1ccccc1C(=S)N1CCCCCC1	-5%	-1%	-2	5.1%
CC(C)Cc1nc(N2CCOCC2)c(C#N)c2c1COC(C)(C)C2	0%	-10%	2	0.1%
Cc1nc2ccccc2n1CC(=O)N/N=C\c1ccccn1	12%	0%	2	-6.0%
CCOC(=O)C(NC(=O)c1ccccc1)(Nc1nnc(C)s1)C(F)(F)F (stereo not drawn)	1%	-4%	-3	1.7%
COc1ccc(/C=N\NC(=O)c2cc(O)c(O)c(O)c2)cc1CN1CCN(c2ccc(F)cc2)CC1	-8%	-13%	-20	-2.5%
Cc1nn(C(=O)c2cccc([N+](=O)[O-])c2)c(C)c1Cl	-5%	0%	.	-2.2%
CCN1C[C@@H]2[C@@H]3C(=O)N(C)C(=O)[C@@H]3[C@](Cc3ccccc3)(C(=O)OC)N2C1=NCc1ccccc1	-1%	.	.	3.6%
O=C(Nc1ccccc1-c1nnn(CC(=O)N2CCN(c3ccccc3)CC2)n1)c1cccs1	0%	25%	-2	-1.0%
CCCN1C(=O)C(O)(C2CC(=O)CC(C)(C)O2)c2ccccc21 (stereo not drawn)	-2%	6%	3	-0.4%
O=C(CNCC1CCCO1)N1CCCc2ccccc21 (stereo not drawn)	-7%	-5%	-8	-1.5%
O=C(CSc1n[nH]c(-c2cccs2)n1)NCc1ccc2c(c1)OCO2	5%	0%	9	-2.9%
CN(c1nc2nonc2nc1NC1CC1)C1CCOC1 (stereo not drawn)	-3%	3%	1	0.3%
Cc1cc(C(=O)NC(Cc2c[nH]c3ccccc23)C(=O)O)c(C)o1 (stereo not drawn)	-7%	0%	.	-0.1%
COC(=O)c1ccc(NC(=O)CSc2nc(C)cc(=O)[nH]2)cc1	-5%	-1%	4	2.1%
O=C(O)CN1C(=O)C2C3C=CC(C3)C2C1=O (stereo not drawn)	0%	-7%	3	-0.9%
CCOC(=O)c1cccc(NC(=O)CSc2nc3cccnc3n2C)c1	-3%	18%	5	2.8%
COc1ccc(CC(=O)Oc2ccc(C)cc2Br)cc1OC	0%	3%	.	1.8%
CN1CCc2c(sc3nc(SCC(N)=O)n(-c4ccc(Cl)cc4)c(=O)c23)C1	11%	0%	.	1.0%
COC(=O)C(=O)Nc1nnc(COc2ccccc2)s1	6%	-3%	6	0.0%
COc1ccc(CNC(=O)C2CC(c3cccc(OC)c3)=NO2)cc1 (stereo not drawn)	-5%	1%	-7	-7.6%
O=C(c1ccccc1Cl)N(Cc1ccc(Br)cc1)N1C(=O)CCCC1=O	16%	-1%	6	-0.1%
O=C(CN1CCSCC1)N/N=C/c1ccccc1F	-3%	-3%	9	1.5%
CC[C@@H]1[C@H]2CCCC(=O)N3CC[C@@H](C[C@@H]1OC(=O)NCc1ccccc1)[C@@H]23	11%	2%	.	0.2%
COCC(C)NCc1cccc(C)c1 (stereo not drawn)	6%	-2%	1	3.9%
CCOc1ccc(C(=O)C2CCN(C(=O)c3ccc([N+](=O)[O-])cc3)CC2)cc1	3%	23%	.	1.2%
COC1CCCN(C(=O)c2ccc3nc(Cc4cccc(Cl)c4)oc3c2)C1 (stereo not drawn)	-12%	-36%	.	-0.7%
Cc1ccc(Nc2cccccc2=O)cc1	-21%	-50%	1	-0.2%
O=S(=O)(Nc1nc2ccccc2s1)c1cc(F)ccc1F	-8%	1%	.	4.4%
O=C(CSc1nnc(-c2ccccc2F)o1)OCc1ccccc1	-15%	1%	1	-3.4%
CN(c1ccc(OCC(=O)NC2CCCC2)cc1)S(=O)(=O)c1cccs1	-21%	0%	7	1.5%
Cc1nn(-c2cc(C(F)(F)F)ccn2)c(=O)o1	-1%	-4%	-10	-0.4%
O=C(Nc1cccc2cccc(NC(=O)c3ccco3)c12)c1ccco1	0%	-7%	-8	1.1%
C=CCNc1ccccc1S(=O)(=O)NCc1ccccc1	32%	.	.	-4.2%
NS(=O)(=O)c1ccc(CCNC(=O)C2CCN(c3ncnc4c3nc3n4CCCCC3)CC2)cc1	-24%	0%&-3%	.	-1.3%
Cn1cc(C(=O)c2cccc(Cl)c2)cc1C#N	-5%	-11%	-1	4.8%
Cc1ccc(C(C)NC(=S)NCc2ccc(F)cc2)cc1C (stereo not drawn)	0%	1%	.	6.9%
COCCNc1ccc(-c2n[nH]c(=O)c3ccccc23)cc1[N+](=O)[O-]	10%	-6%	.	-1.0%
O=C(Nc1ccc(F)cc1F)c1cc2nc3c(c(C(F)(F)F)n2n1)CCCC3	3%	-54%	2	2.5%
CN(C)C(CNC(=O)c1cc(-c2ccco2)nc2ccccc12)c1ccccc1 (stereo not drawn)	-1%	.	.	-2.1%
Carrying on.
SMILES	Rango release inh	miR-21 FLuc	GLA inh pH 4.5	Rango-impB inh
CC(C)c1c(O)nc(SCCOc2ccc(Cl)cc2)[nH]c1=O	2%	-2%	-14	1.2%
O=C(NCCSSCCNC(=O)c1ccccc1)c1ccccc1	23%	.	.	0.4%
COc1ccc(/C=C(\C#N)C(=O)c2cccn2C)cc1	12%	-5%	.	0.3%
O=S(=O)(Nc1cc(S(=O)(=O)N2CCOCC2)ccc1N1CCOCC1)c1ccc2c(c1)OCCO2	1%	1%	4	-0.9%
O=C(CCCN1C(=O)S/C(=C\c2ccccc2)C1=O)NNC(=O)c1ccccc1O	-7%	?	-5	-0.4%
CCN1CCN(c2ncnc3c2cnn3-c2ccccc2)CC1	-25%	-41%	-5	0.1%
CN(C)c1ccc(N/C=C/C(=O)c2ccco2)cc1	-18%	-59%	-5	5.8%
CC(=O)Nc1cccc(-c2nn[nH]n2)c1	12%	0%	2	0.4%
O=C(NNC(=S)Nc1ccc(Cl)cc1Cl)c1ccncc1	7%	-32%	8	4.5%
CC(C)COCC(O)CC(Cc1ccccc1)C(=O)NN (stereo not drawn)	2%	1%	1	-0.2%
O=C(Cc1ccc(S(=O)(=O)N2CCOCC2)s1)Nc1ccccc1N1CCOCC1	2%	11%	-4	-3.2%
CC(=O)c1ccc(S(=O)(=O)NC2CCSc3ccccc32)cc1 (stereo not drawn)	2%	2%	.	-1.8%
O=[N+]([O-])c1cc(S(=O)(=O)N2CCOCC2)ccc1N1CCNCC1	-10%	.	.	-1.5%
CCCc1nc2ccccc2c(C(=O)OCC(=O)c2ccc3c(c2)NC(=O)CO3)c1CC	15%	-2%	6	-0.1%
COc1cc([N+](=O)[O-])ccc1NC(=O)Nc1ccc2c(c1)OCCO2	2%	-19%	-5	0.5%
O=C(CSc1nccc(=O)[nH]1)N1CCN(c2ccccc2)CC1	2%	-1%	1	3.1%
Cc1cc(C)c2[nH]c(C(=O)N3CCC(n4nccc4NC(=O)C4CC4)CC3)c(C)c2c1	0%	8%	.	-1.3%
CNCCNC[C@H](Cc1cccc2ccccc12)NCCc1ccccc1	0%	.	.	7.2%
CCOc1ccc(NC(=O)N[C@@H](Cc2ccccc2)C(=O)O)cc1	1%	-4%	1	-2.7%
COc1ccc(OC)c2c1CC(C)(C)NC2=O	16%	-4%	10	1.1%
CC(NS(=O)(=O)c1ccc(CCC(=O)NCc2ccco2)cc1)c1ccccc1 (stereo not drawn)	0%	2%	3	0.5%
O=C(COCc1cc(-c2ccco2)on1)NC1CCCCC1	-4%	-14%	.	-0.7%
O=C(COC(=O)c1cc(S(=O)(=O)N2CCOCC2)ccc1Cl)Nc1ccc2c(c1)OCO2	0%	8%	1	5.3%
CC(c1ccccc1)N(CC(=O)NC1CCCCC1)S(=O)(=O)c1cccc(C(F)(F)F)c1 (stereo not drawn)	-2%	17%	-12	1.3%

Entries of single compounds as entered above. Order of screens: Rango release inh | miR-21 FLuc | GLA inh pH 4.5 | Rango-impB inh
O=C(COC(=O)c1cc(S(=O)(=O)N2CCOCC2)ccc1Cl)Nc1ccc2c(c1)OCO2 reads 0% | 8% | 1 | 5.3%
O=C(COCc1cc(-c2ccco2)on1)NC1CCCCC1 reads -4% | -14% | . | -0.7%
CCOc1ccc(NC(=O)N[C@@H](Cc2ccccc2)C(=O)O)cc1 reads 1% | -4% | 1 | -2.7%
COc1ccc(OC)c2c1CC(C)(C)NC2=O reads 16% | -4% | 10 | 1.1%
CNCCNC[C@H](Cc1cccc2ccccc12)NCCc1ccccc1 reads 0% | . | . | 7.2%

(continued)
SMILES	Rango release inh	miR-21 FLuc	GLA inh pH 4.5	Rango-impB inh
Cc1ccnc(NCc2cccc3ccccc23)c1	-9%	-10%	.	2.3%
CCn1cc(C2=NOC(C(=O)Nc3ccccc3C(=O)OC)C2)c(C)n1 (stereo not drawn)	13%	-2%	0	0.3%
Cc1ccc(C(=O)OC(C)C(=O)NC2CCCCC2)cc1S(=O)(=O)N1CCCCC1 (stereo not drawn)	1%	.	.	1.8%
Cc1cc(C)c(C(=O)C(C)OC(=O)Cn2cnc3c2c(=O)n(C)c(=O)n3C)cc1C (stereo not drawn)	9%	.	.	7.7%
CCC(Sc1nc(C)cc(C)n1)C(=O)Nc1cc(C)on1 (stereo not drawn)	19%	1%	3	0.3%
CC1=NN(c2ccccc2)C(=O)/C1=C\c1sccc1C	24%	1%	-2	0.2%
CC1CC(C)(C)N2C(=O)C(=C(C#N)C#N)c3cccc1c32 (stereo not drawn)	-9%	7%	5	-4.6%

This is a subset (hit frequency here may not be typical).
